High-throughput results from PubChem.
MT1-MMP act inh: blockers of MT1-MMP proenzyme processing, primary screen, HT1080 RFP-PRO-GFP cells, GFP/RFP fluorescence; Matrix metalloproteinase-14 (Homo sapiens), P50281; GFP/RFP ratio change, % at 20 µM; AID 651647, 2012; GFP/RFP ratio fluorescence, overnight; percent of plate control window, DMSO zero; 360,000 tested, 0.061% active;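 active = GFP/RFP ratio change of at least 30% with cell ATP level not reduced by more than half and red fluorescence within 50% of control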; note: strong numbers were not always called active
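system = RFP-PRO-GFP reporter HT1080 cells | dosing = 20 µM single dose, 1% DMSO | timing = overnight cell settling, then overnight compound exposure, 37 °C, 5% CO2 | read-out basis = GFP/RFP fluorescence ratio | controls = DMSO and RFP-L50D-GFP cell wells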
eIF4H inh: human eIF4H binding inhibitors, primary screen, translation initiation inhibitor project, biochemical, uHTS, fluorescence polarization; Eukaryotic translation initiation factor 4H (Homo sapiens), Q15056; eIF4H fluorescence polarization binding assay; inhibition, % at 35 µM; 290,000 tested, 0.94% active; AID 2012, 2009;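 active = 50% or more with normal probe brightness, or confirmed in later tests; inconclusive = above 50% with abnormal brightness, or retests that disagree; inactive = below 50% or failed in later tests; about a fifth of its hits are not listed in these tables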;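 note: calls also rest on retests at 20 µM and on dose response follow-up; 0% = protein and probe with vehicle and 100% = probe without protein; strong numbers were not always called active; many hits fall short of the cut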
Rce1 inhib: yeast Rce1p protease inhibitors, primary screen, biochemical, fluorescence, cell-free homogeneous; yeast membranes, quenched prenylated peptide cleavage fluorescence; calls only; 290,000 tested, 0.27% active;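 active = fall in fluorescence gain of 50% or more versus controls, with final raw signal at or below 3038400; inconclusive = same 50% fall but final raw signal above 3038400; inactive = fall in fluorescence gain under 50%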;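 note: plate controls were neutral control wells for no effect and wells lacking membranes for full effect; tested at 10 µM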
Target sequence (Q03530 whole entry, looked up): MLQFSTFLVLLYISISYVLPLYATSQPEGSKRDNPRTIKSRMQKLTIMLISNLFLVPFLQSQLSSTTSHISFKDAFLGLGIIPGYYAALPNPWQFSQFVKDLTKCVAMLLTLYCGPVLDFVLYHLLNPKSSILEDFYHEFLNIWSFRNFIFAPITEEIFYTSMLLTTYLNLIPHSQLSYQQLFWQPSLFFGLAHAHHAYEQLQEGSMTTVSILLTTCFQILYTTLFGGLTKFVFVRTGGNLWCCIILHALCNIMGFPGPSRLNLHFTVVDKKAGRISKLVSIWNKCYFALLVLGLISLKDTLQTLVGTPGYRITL
CSC inhib: cancer stem cell viability inhibitors, primary screen, luminescence; inhibition, % at 7.5 µM; cancer stem cell-like cells viability; 300,000 tested, 1.1% active;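 active = mean at 75% or more and at least half the replicates too; inconclusive = mean and replicates disagree; tested in HMLE shEcad cells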;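 note: 0% = median of negative and 100% = median of positive control wells; the first replicate is given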
UUG fidelity: modulators of yeast start codon fidelity, primary screen, whole organism, S. cerevisiae, single point, plate reader; S. cerevisiae UUG-firefly luciferase reporter, luminescence/redox ratio; activity score, % at 18.7 µM; 350,000 tested, 0.13% active; AID 602363, 2012;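 active = replicate mean at a twofold rise or more, about +100% in these data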;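 note: firefly luciferase made from a UUG start codon reports start codon fidelity; reporter light over untreated wells divided by growth signal over untreated wells; some hits fall short of that in this replicate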
HIV Env fusion: inhibitors of HIV-1 Env-driven cell-cell fusion, primary screen, HeLa-JRFL effector, CEM21 target cells, luciferase. AID 651610, 2012. inhibition, % at 12.3 µM. 360,000 tested, 1.1% active;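 active = mean replicate inhibition score of at least 50 and every replicate individually at or above 50; inconclusive = only one of the two criteria met; inactive = mean below 50 and not all replicates reaching 50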;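 note: 0% = plate neutral controls and 100% = maraviroc near 300 nM; one replicate is shown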
PABP FP inh: PABP poly(A) RNA binding inhibitors, primary screen, biochemical, fluorescence polarization, uHTS | Polyadenylate-binding protein 1 (Homo sapiens), P11940 | inhibition, % at 35 µM | 290,000 tested, 1% active;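 active = 50% or more with normal probe brightness, or confirmed in later tests; inconclusive = above 50% with abnormal brightness, or retests that disagree; inactive = below 50% or failed in later tests; about a fifth of its hits are not listed in these tables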;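 note: calls also rest on retests at 20 µM and on dose response follow-up; controls were probe without protein and protein plus probe with vehicle; some compounds called inactive have numbers as strong as hits; many hits fall short of the cut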
MT1-MMP act inh RFP: second read-out of MT1-MMP act inh, no call of its own (marks repeat the call); RFP signal change, %; measured here: RFP expression control read;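 0 = vehicle wells; hits needed this value within 50% of zero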
* hit, by the source's call; i = inactive; ? = inconclusive; / = no result given.

Under each structure – CSC inhib, MT1-MMP act inh RFP, PABP FP inh, Rce1 inhib, MT1-MMP act inh, UUG fidelity, HIV Env fusion, eIF4H inh
CC(C)NC(=O)CC1OC(=O)c2ccccc21 (configuration not stated)
 : -4.7, 2.6, 3.6, i, 0.6, -9.3, 7.0, -6.3
CC1(C)Oc2cc3oc(=O)ccc3cc2C[C@@H]1O
 : -7.8, -3.4, /, /, -2.0, -24.6, -19.4, /
Cc1cc(C)nc(SCC(=O)n2c3c(c4ccccc42)CCCC3)n1
 : -28.2, 1.6, -0.2, i, -1.1, -14.1, -17.4, 7.9
CC(C)(C)NC(=O)COC(=O)c1cc(S(=O)(=O)N2CCCCC2)ccc1N1CCOCC1
 : 0.1, -0.2, -16.9, i, -3.3, -13.5, /, -7.3
Cc1cc(C(C)c2ccccc2)c(O)c(CN2CCOCC2)c1C (configuration not stated)
 : -2.5, -1.8, -0.1, i, -1.8, 1.8, -101.9, -6.2
C=CCOC(=O)/C(=C\c1ccccc1)NC(=O)c1ccc(C)cc1
 : 1.8, 0.6, -2.1, i, -5.9, /, -1.3, 7.8
COc1ccc(Cn2c(=O)[nH]c3cc(C(=O)N4CCN(c5ccccc5)CC4)ccc3c2=O)cc1
 : -12.1, -4.2, -2.2, i, 3.6, -11.6, /, -13.5
CC(C)(C)NC(=O)NC(=O)CSc1ncn[nH]1
 : /, -0.7, -4.9, i, -0.4, /, -16.3, -7.4
COc1ccc(CNC(=O)c2ccc(C)o2)cc1
 : -9.7, 3.0, 9.5, i, -4.4, -17.1, 4.8, -4.5
CC(C)(C)c1ccc(OCCCNCc2ccccc2)cc1
 : 25.5, 1.6, -2.0, i, 0.6, /, /, 6.4
c1ccc2c(c1)nnn2-c1ncnc2sc3c(c12)CCCC3
 : -3.3, -10.9, 1.0, i, -4.0, -1.3, -33.4, 3.4
C/C(CCN1CCc2nc(-c3ccccc3)c(-c3ccccc3)cc2C1)=N\O[C@@H](C)c1cn([C@H](CO)Cc2ccccc2)nn1
 : 39.0, /, 0.0, i, /, /, /, 4.7
c1ccc(COc2ccc(OCCCn3cncn3)cc2)cc1
 : 10.6, -8.6, -6.0, i, 1.5, -40.3, /, 1.2
Cc1ccc(C(=O)/C=C/Nc2ccccn2)cc1
 : -0.8, 0.7, /, i, -0.5, /, /, /
Cc1ccc(-c2csc(NNC(=O)c3ccccc3)n2)cc1
 : 60.6, 4.5, -2.0, i, 14.2, /, 7.2, 6.0
Cc1cccc2cc3c(nc12)-c1ccccc1C3=O
 : -12.8, 2.0, -1.6, i, -2.4, -4.8, -9.4, -6.0
C#CCN1C=CC(=O)[C@@H](OC(=O)Nc2ccc(OC)cc2)[C@H]1c1ccccc1Br
 : /, 1.2, /, /, 0.5, 14.4, 12.7, /
COc1cccc(=O)c2c(C)n(-c3ccc(C(=O)O)cc3)c(C)c12
 : 11.9, /, 20.2, i, /, /, 13.0, 28.1
O=C(O)c1ccc(Cl)c(NCc2cccs2)c1
 : -7.1, 0.8, 12.4, i, -4.4, -1.0, -8.6, 2.0
Clc1ccccc1-c1cccc2nccn12
 : /, -5.8, /, /, -4.4, -3.3, -41.4, /
O=C(COc1cccc2cccnc12)N1CCc2ccccc2C1
 : -2.6, 2.5, -4.0, i, 1.7, -3.4, /, -2.4
COc1ccc2c(c1)c(C(C)=O)c(C)n2C
 : 3.2, -1.0, 11.3, i, -3.1, /, 13.5, -1.9
CC(C)c1cc(-c2cc(-c3ccc(Cl)cc3)on2)nc(NCC2CC2)n1
 : 34.8, -3.9, 1.2, i, -4.3, -10.5, -8.1, -3.7
N#Cc1ccc(NC(=O)COC(=O)CSc2nnc(-c3ccc(Cl)cc3)o2)cc1
 : -7.8, 1.9, -26.5, i, 2.5, /, -100.6, -8.2
O=C(Nc1ncc(Cc2ccccc2)s1)C1CCCO1 (configuration not stated)
 : -9.8, 1.9, -27.1, i, -0.5, -40.5, -48.6, -11.6
COc1cccc(NC(=O)C2CCC(CNC(=O)[C@@H]3Cc4ccccc4CN3)CC2)c1 (some centres not stated)
 : -7.9, -1.8, 12.3, i, 1.0, -18.9, -2.4, -0.1
COc1ccc(-n2cc(-c3ccccc3)c3c(NCCCN4CCOCC4)ncnc32)cc1
 : 63.7, -6.9, -5.5, i, -13.8, /, 15.3, -10.7
Cc1ccc(NC(=O)CC(C)S(=O)(=O)c2ccc3c(c2)NC(=O)CO3)cc1C (configuration not stated)
 : 1.9, 5.6, -4.2, i, 2.3, -18.7, 2.5, -6.0
COc1ccccc1-n1c(SCC(=O)NC2CCS(=O)(=O)C2)nc2cc([N+](=O)[O-])ccc21 (configuration not stated)
 : 1.0, 3.3, -5.4, i, 1.2, -18.1, 0.2, 2.3
COc1cc(OC)c2c(-c3cccc(-c4ccc(O)cc4)c3)cc(=O)oc2c1
 : /, -13.4, /, /, -2.2, -11.5, -63.6, /
COc1ccc(/C(N)=N/OC(=O)c2ccc(OC)c([N+](=O)[O-])c2)cc1OC
 : -1.6, -2.7, -14.4, i, -1.7, -15.5, -0.7, -2.4
O=C(O)c1cccc(OCc2ccccc2Cl)c1
 : 4.1, 3.2, -12.7, i, 4.5, -8.1, -45.7, -16.9
CCOC(CNC(=O)CCc1c(C)nc2ncnn2c1C)OCC
 : -21.4, 4.4, 15.0, i, 1.3, /, -60.2, 2.5
Cc1ccc(CNC(=O)CSc2ccc(-c3cccs3)nn2)cc1
 : -3.3, -0.1, 6.9, i, -2.4, -7.2, /, -0.4
Cc1ccc(N(C(=O)c2csnn2)C(C(=O)NC(C)(C)C)c2cccnc2)cc1C (configuration not stated)
 : -7.7, 2.9, 4.1, i, -1.8, /, 4.7, 10.9
O=C(CN1C(=O)NC2NC(=O)NC21)N/N=C/c1ccccc1O (configuration not stated)
 : -14.3, 3.9, -17.3, i, 2.2, /, -0.5, -5.3
Cc1ccccc1-n1c(SCC(=O)c2cc(C)n(C)c2C)nnc1-c1ccncc1
 : -6.5, 1.1, 40.0, i, -2.3, -18.0, -49.2, 41.8
COC(=O)COc1ccc(C)cc1-n1nc2ccccc2n1
 : -20.8, 8.7, 2.8, i, 13.9, -17.5, 6.0, -6.7
COc1cccc(CNC(=O)c2ccc(NC(=O)C3CCCO3)cc2)c1 (configuration not stated)
 : /, 2.9, -3.5, i, -2.1, /, -169.2, -6.5
COc1ccccc1CN1C[C@@H]2C[C@@H](c3cccc(C)n3)N3CCC[C@@]23C1=O
 : 2.3, 4.4, 14.0, i, 0.8, /, -20.6, 17.2
COc1ccc(OCC(=O)NCc2n[nH]c(=O)c3ccccc23)cc1
 : /, -0.8, /, i, -3.3, -20.1, -3.2, /
CCOC(=O)CCn1cc(F)c(=O)[nH]c1=O
 : /, 3.1, 1.9, i, -2.0, /, 13.2, -2.1
N#Cc1c(C#N)c(-c2ccccc2)n(-c2ccccc2)c1N
 : 59.9, -13.5, -2.1, i, 1.6, /, /, -5.1
O=[N+]([O-])c1cccc2c(N3CCCC3)ccnc12
 : -4.2, -7.3, -3.2, i, 2.4, 2.9, -7.2, -0.9
N#Cc1ccc(CO/N=C/c2ccccc2)cc1
 : 0.2, 3.4, -0.6, i, -2.8, /, -5.8, -3.5
Cc1noc(NS(=O)(=O)c2ccc(NC(=O)CSc3nc4ccccc4s3)cc2)c1C
 : 5.0, 6.1, 25.8, i, 5.9, -4.1, /, -6.3
O=c1[nH]c2c(s1)C=Nc1ccccc1N2
 : -7.1, 1.4, ?, i, -150.4, -33.9, -12.2, ?
CC1(C(=O)Nc2ccc3c(c2)OCO3)Cc2c(-c3cccc(C(N)=O)c3)ccnc2O1 (configuration not stated)
 : /, -1.7, /, /, 15.2, -25.7, -30.3, /
Cc1cc(C)cc(NC(=O)COc2coc(CN3CCN(c4ccccc4)CC3)cc2=O)c1
 : -0.7, -14.7, /, i, 0.1, -10.3, /, /
CCCC1NC(=O)NC(C)=C1C(=O)OCC (configuration not stated)
 : -0.5, 3.3, 6.1, i, 4.2, -9.2, -11.4, 2.2
CCN(CC(=O)Nc1ccc(OC)cc1)C(=O)c1cc(S(=O)(=O)N(C)C)ccc1N1CCCC1
 : 0.0, 1.9, /, i, 1.7, /, -6.8, /
CCC(C)(C)n1nnnc1C(c1cc2ccc(C)cc2[nH]c1=O)N(Cc1cccnc1)Cc1ccco1 (configuration not stated)
 : 1.9, -9.5, 15.8, i, -7.7, /, /, -1.5
O=C(NCCOc1cccc(Oc2ccccc2)c1)c1cc(-n2cnnc2)ccc1Cl
 : -17.2, -7.3, -2.8, i, 1.9, -9.2, -1.7, -3.6
Cc1ccccc1OCc1nc2c3c(ncn2n1)-c1ccccc1CC31CCCC1
 : 11.5, -10.3, -12.6, i, -6.5, /, 5.4, -1.1
Cc1ccc(N(C(=O)CNC(=O)c2ccco2)C(C(=O)NC2CCCC2)c2ccncc2)c(C)c1 (configuration not stated)
 : -5.2, -1.7, 0.4, i, 0.5, -11.0, -1.2, 1.5
CN1C(=O)C(c2nnc(Nc3cccc4ccccc34)s2)C2CC1(C)Oc1ccccc12 (configuration not stated)
 : 0.2, -6.2, -2.5, /, 1.5, /, -37.1, -7.9
COc1ccc(/C=N/NC(=O)CN(C)S(=O)(=O)c2ccc(NC(C)=O)cc2)cc1
 : -11.4, 5.8, -9.1, i, -0.2, /, -6.4, 0.9
NC(Cc1ccc(F)cc1)c1csc(Nc2cc(NCc3ccco3)ncn2)n1 (configuration not stated)
 : /, -9.2, /, /, -9.9, -15.6, -10.3, /
Cc1ccc(/C=N/NC(=O)c2cc(C)oc2C)o1
 : /, 0.8, -17.2, i, 1.5, 4.2, /, 6.0
O=C(NCCc1ccccc1)C1CCC(Cn2c(=O)c3ccccc3n(Cc3cccnc3)c2=O)CC1 (configuration not stated)
 : -16.9, -6.1, -1.0, i, -2.7, /, 8.9, 2.9

Remaining list, next part:
Under each structure – CSC inhib, MT1-MMP act inh RFP, PABP FP inh, Rce1 inhib, MT1-MMP act inh, UUG fidelity, HIV Env fusion, eIF4H inh
CCOC(=O)Cn1c(=O)oc2cc(S(=O)(=O)NCCc3ccc(C)cc3)ccc21
 : -13.6, 2.5, -4.9, i, 0.5, -3.8, -10.1, -8.2
S=C(N/N=C/c1ccco1)NC1CC2CCC1C2 (configuration not stated)
 : -0.4, -1.5, 15.2, i, -2.1, -12.8, -18.1, 28.1
CCCCn1c(N)c(N(CC(C)C)C(=O)CSc2ccccc2C)c(=O)[nH]c1=O
 : -3.4, -2.1, /, i, 3.2, /, 4.5, /
CCOc1ccccc1NC(=O)C(OC(=O)c1ccccc1)c1ccccc1 (configuration not stated)
 : /, 2.3, 1.1, i, 5.8, -2.1, 1.7, -12.1

Some entries already given, limited to PABP FP inh and UUG fidelity.
Molecule | PABP FP inh | UUG fidelity
CCOC(=O)CCn1cc(F)c(=O)[nH]c1=O | 1.9 | /
O=C(NCCc1ccccc1)C1CCC(Cn2c(=O)c3ccccc3n(Cc3cccnc3)c2=O)CC1 (configuration not stated) | -1.0 | /
COc1cccc(NC(=O)C2CCC(CNC(=O)[C@@H]3Cc4ccccc4CN3)CC2)c1 (some centres not stated) | 12.3 | -18.9

This is a subset; count on the stated rates, not on these rows.
